Rango complex inh – Rango-importin beta binding inhibition. Q14974. Rango CFP/YFP FRET sensor + importin beta, 45 min. Potency, µM (highest dose often 92.2 µM), for inactives: at the top dose inhibition of complex formation. 340,000 tested, 0.031% active. AID 540263; active = rising FRET ratio curve, often small or poorly fitted; inconclusive = mostly compound fluorescence or quenching in the first reads; inactive = flat curves in all reads;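 note: potency is the fitted concentration of half-maximal effect; 0% = DMSO wells and 100% = buffer wells lacking importin beta; nearly all actives have a fitted effect of over 15% in size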
Target sequence (Q14974 whole entry, looked up): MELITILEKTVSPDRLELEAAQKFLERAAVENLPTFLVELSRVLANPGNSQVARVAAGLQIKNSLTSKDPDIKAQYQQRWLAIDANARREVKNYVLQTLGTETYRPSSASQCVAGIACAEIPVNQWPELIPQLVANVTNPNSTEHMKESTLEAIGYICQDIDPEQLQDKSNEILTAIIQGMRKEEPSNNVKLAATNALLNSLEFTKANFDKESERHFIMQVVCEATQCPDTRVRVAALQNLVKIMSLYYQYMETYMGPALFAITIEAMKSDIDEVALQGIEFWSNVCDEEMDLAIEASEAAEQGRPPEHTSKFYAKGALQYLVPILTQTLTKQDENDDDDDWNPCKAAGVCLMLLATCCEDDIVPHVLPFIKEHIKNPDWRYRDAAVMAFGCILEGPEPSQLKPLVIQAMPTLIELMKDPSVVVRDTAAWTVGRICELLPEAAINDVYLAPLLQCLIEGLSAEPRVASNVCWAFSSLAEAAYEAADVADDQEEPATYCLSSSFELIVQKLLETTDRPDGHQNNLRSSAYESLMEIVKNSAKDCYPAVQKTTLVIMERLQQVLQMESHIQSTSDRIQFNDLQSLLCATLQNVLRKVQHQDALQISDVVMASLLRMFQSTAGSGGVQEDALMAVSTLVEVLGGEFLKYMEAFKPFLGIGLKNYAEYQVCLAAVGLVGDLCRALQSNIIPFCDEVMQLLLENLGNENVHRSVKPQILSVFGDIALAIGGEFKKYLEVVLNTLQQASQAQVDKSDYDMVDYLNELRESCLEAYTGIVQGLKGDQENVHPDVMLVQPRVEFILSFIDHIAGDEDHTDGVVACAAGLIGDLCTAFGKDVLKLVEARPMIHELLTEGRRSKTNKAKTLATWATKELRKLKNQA
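FRET biosensor (snurportin 1 IBB flanked by EYFP and cerulean), 50 nM, with compound 5 min, then 0.125 microM importin beta in PBS, 1 mM DTT, 0.02% Tween-20, 0.1% BSA. CFP/YFP ratio read after 45 min at room temperature; pre-read flags interference.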
Rango dissoc inh – prevents RanGTP from dissociating the Rango-importin beta complex; O95149+P62826; Biochemical FRET Rango-importin beta, RanGTP-induced dissociation; Potency, µM (top dose mostly 46.1 µM), inactives show top-dose activity change, negative = inhibition; 340,000 tested, 0.071% active; AID 540253; active means falling FRET ratio curve, often poorly fitted, with flat reads before Ran was added; inconclusive means other falling curves, or compound fluorescence or quenching; inactive means flat or rising ratio curve;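 note: potency is the fitted concentration of half-maximal effect; % of control where 0% means no effect; nearly all actives have a fitted effect of over 45% in size; -100% = wells without RanGTP and RCC1; the record marks most hits as doubtful in a second field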
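Quantitative HTS using a FRET biosensor: 0.1 uM Rango, 0.25 uM importin beta, 0.6 uM Ran, 2 mM GTP, 0.2 uM RCC1 final, PBS with DTT, Tween-20 and BSA. Post-read taken 45 min after Ran addition.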
GLA inh pH 4.5 – blocks human alpha-galactosidase A at pH 4.5 | P06280 | purified enzyme, 4-MU-alpha-Gal fluorescence, pH 4.5 | activity change, negative = inhibition, % at 105 µM | 230,000 tested, under 10 active; inconclusive = small, poorly fitted or top-dose-only inhibition, or a rising curve; inactive = flat fitted curve, though single readings scatter; no compound was filed as active;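 note: 0% = full activity with enzyme and -100% = basal without enzyme; dose as in the result columns while the protocol names 77 µM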
miR-21 FLuc – raises the signal of a miR-21 reporter; Potency, µM (highest dose often 38.3 µM), for inactives: top-dose reporter change, positive = more light; AID 2288; 340,000 tested, under 10 active; HeLa miR-21 FLuc reporter, luciferase, 48 h; active = well fitted rising curve with a large enough effect; inconclusive = small, poorly fitted or top-dose-only effect; inactive = no such curve, though single readings can be large or run the other way;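 note: % of control where 0% means no effect; miR-21 action dims this reporter so a rising signal means less miR-21 action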
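Compounds were titrated across several concentrations (up to approximately 40 uM) and incubated 48 hours with HeLa miR-21-FLuc reporter cells (miR-21 target sequence downstream of FLuc, endogenous miR-21). Readout was firefly luciferase luminescence after lytic detection reagent.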
Starred values were filed as active, the others as inactive; ? = inconclusive; / = no result given; & = joins results of further samples.

Rango complex inh,Rango dissoc inh,GLA inh pH 4.5,miR-21 FLuc,Compound
1.2%,1%,-11,-39%,Nc1nc(N)nc(-c2ccccc2O)n1
-2.3%,12%,/,-7%,O=C(NCc1ccccc1)C(c1ccncc1)N(C(=O)c1csnn1)c1cccc(F)c1 (stereo not given)
-0.5%,8%,-14,-51%,Cc1cccc(/C=N/NC(=O)Cc2cccs2)c1
2.0%,24%,/,0%,CCN1C(=O)[C@H]2[C@@H](c3ccc(Cl)cc3)N3C(=O)CN(CCOC)C(=O)[C@@]3(C)[C@H]2C1=O
-0.7%,1%,7&-3,9%,C=CCN1c2ccccc2[C@]23C[C@@H](C(=O)OC)N(C(=O)c4ccc(Br)cc4)C2=NC(C(=O)OC)=C(C(=O)OC)[C@H]13
-0.9%,-13%,0,9%,Nc1ncnc(Oc2cccc3cccnc23)c1[N+](=O)[O-]
-3.6%,-4%,/,-12%,O=S(=O)(NCCc1ccc(Cl)cc1)c1cccc2cccnc12
1.4%,37%,-1,-1%,CCOC(=O)COc1ccc(Br)cc1C1NC(=O)NC(C)=C1C(=O)NCc1ccccc1 (stereo not given)
-1.8%,-7%,/,4%,CCC(C(=O)NCCc1c[nH]c2ccc(C)cc12)c1ccccc1 (stereo not given)
-3.0%,6%,4,-16%,COc1ccc(C2CC(c3ccccc3)=NN2C(=O)COC(=O)C2CC2)cc1 (stereo not given)
-1.6%,-4%,7,-2%,CCOC(=O)c1c(C)c(C(=O)NCc2ccco2)c(C)n1Cc1ccccc1
-0.5%,1%,-2,0%,COc1cc2c(cc1C1NC(=S)NC(C)=C1C(N)=O)CCCC2 (stereo not given)
-2.6%,-1%,/,-2%,CCc1ccc(C(=O)COC(=O)CNC(=O)Cc2ccccc2)cc1
0.6%,13%,-3,12%,Cc1ccc(COCCN2CCN(S(=O)(=O)c3ccccc3)CCC2=O)cc1
0.7%,3%,-5,-2%,O=C(O)CCCN=CC1=C(O)CNC1=O
1.5%,-1%,6,-9%,COC(=O)c1ccc(CSc2nnc3n(Cc4ccccc4OC)c(=O)c4ccccc4n23)o1
1.3%,4%,/,-1%,O=S(=O)(NCC(c1cccnc1)N1CCc2ccccc2C1)c1ccccc1 (stereo not given)
0.6%,0%,/,-8%,COc1cc(CN2CCCCCC2)cc(OC)c1OC
1.1%,-17%,4,-9%,N#CC(C(=O)NC1CCCCC1)=C1CCCCC1
-1.4%,-15%,-6,-22%,Cc1ccc(-c2nc3cccnc3s2)cc1NS(=O)(=O)c1cccs1
3.3%,-2%,4,-16%,Cc1ccc(S(=O)(=O)C(C)C(=O)c2ccc3c(c2)OCCO3)cc1 (stereo not given)
5.4%,2%,3,1%,O=C(O)c1ccc(-c2ncc[nH]2)cc1
-1.7%,1%,6,-8%,Cc1ccccc1C(C(=O)NCc1ccco1)N(CC1CCCO1)C(=O)Cn1nnc2ccccc21 (stereo not given)
-5.0%,4%,-16,-18%,Cc1cccc(Nc2nc(NCc3ccco3)nc(N3CCOCC3)n2)c1
-5.4%,21%,5,0%,COc1ccc(Oc2coc3c(CN4CCOCC4)c(O)ccc3c2=O)cc1
-1.2%,2%,/,-3%,COc1cc(S(=O)(=O)NC2CCCCC2C)ccc1F (stereo not given)
-4.0%&-3.3%,-14%&-8%,3,2%,CCOC(=O)C1=C(C)NC(C)=C(C(=O)OCC)C1C(=O)OCC(=O)NC(C)C
-0.3%,7%,/,-7%,Cc1ccc(S(=O)(=O)CC(=O)N2CCN(c3ccc(F)cc3)CC2)cc1
-0.9%,9%,/,/,C1=NN(c2ccccc2)C=NN1c1ccccc1
4.2%,-3%,-1,-6%,CC(Oc1ccc(Cl)cc1Cl)c1ccnc2nc(N3CCOCC3)nn12 (stereo not given)
1.1%,-8%,/,/,CN1CCC(C(=O)C(=O)O)C1=O (stereo not given)
-2.0%,1%,-28,-8%,Cc1ccc(OCCNc2cc(N3CCN(CCO)CC3)ccc2[N+](=O)[O-])cc1C
0.0%,6%,/,/,O=CNc1ccc2c(c1)Cc1cccc(NC=O)c1-2
-2.7%,13%,/,2%,Cc1ccc2c(c1)N(CC(=O)N1CCC(C)CC1)C(=O)c1cccnc1O2
-1.0%,7%,6,-1%,CCOC(=O)c1sc2ncnc(OC)c2c1C
-2.3%,1%,/,15%,COc1ccc(N(CC(=O)NCCSc2ccc(C)cc2)S(=O)(=O)c2ccccc2)c(OC)c1
-8.0%,-9%,9,-10%,COc1ccccc1N1CCN(C(=O)c2cc(-c3cccc(Cl)c3)on2)CC1
/,/,0&4,-13%,CC(c1cc2ccccc2s1)N(O)C(N)=O (stereo not given)
-1.9%,14%,2,1%,CCOC(=O)C(NC(=O)NC1CCCCC1)(c1ccccc1)C(F)(F)F (stereo not given)
-0.9%,-9%,-7,-1%,CCc1nnc(NC(=O)CSc2nnc3c4ccccc4n(C)c3n2)s1

5 entries from above, with bars between the fields:
mol | Rango complex inh | Rango dissoc inh | GLA inh pH 4.5 | miR-21 FLuc
CCOC(=O)c1sc2ncnc(OC)c2c1C | -1.0% | 7% | 6 | -1%
COc1ccc(N(CC(=O)NCCSc2ccc(C)cc2)S(=O)(=O)c2ccccc2)c(OC)c1 | -2.3% | 1% | / | 15%
COc1ccccc1N1CCN(C(=O)c2cc(-c3cccc(Cl)c3)on2)CC1 | -8.0% | -9% | 9 | -10%
CC(c1cc2ccccc2s1)N(O)C(N)=O (stereo not given) | / | / | 0&4 | -13%
CCOC(=O)C(NC(=O)NC1CCCCC1)(c1ccccc1)C(F)(F)F (stereo not given) | -1.9% | 14% | 2 | 1%

(further entries)
Rango complex inh,Rango dissoc inh,GLA inh pH 4.5,miR-21 FLuc,Compound
-1.8%,0%,0,8%,CC(NC(=O)COC(=O)c1ccc(N(C)C)cc1)c1ccccc1 (stereo not given)
-0.6%,-4%,-5,-2%,CCC(=O)Nc1cccc2c1C(=O)N(C)C2=O
-0.9%,0%,/,5%,Cc1cnc(C(=O)N2CCCC(N3CCN(c4cccc(C(F)(F)F)c4)CC3)C2)cn1 (stereo not given)
-0.1%,-9%,-4,-2%,Cc1nc(=O)c(-c2ccccc2)c(C)n1CCCCCC(=O)O
0.4%,1%,/,7%,O=[N+]([O-])c1ccc(NC(=S)N2CCN(S(=O)(=O)c3ccccc3)CC2)cc1
1.3%,16%,17,-5%,C=CCn1cc(-c2cccc(C(F)(F)F)c2)cc(C#N)c1=O
3.0%,-5%,1,-22%,CCc1cc2c(=O)[nH]c(COC)nc2s1
0.7%,15%,/,-2%,Cc1cc(C)nc(NCc2ccc(Cl)cc2)n1
-2.3%,-4%,3,-35%,CN(Cc1cccs1)C(=O)/C=C/c1ccccc1[N+](=O)[O-]
1.5%,4%,/,-14%,O=C(O)c1cc(-c2ccc3ccccc3n2)nc2ccccc12
-3.3%,-14%,1,-4%,COc1ccc2c(c1OC)C(=O)N(c1ccc(C)c(C)c1)C2=O
3.7%,-8%,/,/,Cc1noc(C)c1COc1ccc(C(=O)N2CCN(c3ccccc3O)CC2)cc1
0.3%,-9%,4,-33%,Fc1ccc(-c2csc(/C=C/c3ccc4c(c3)OCO4)n2)cc1
0.9%,14%,/,/,O=C(COC(=O)/C=C/c1cccc(Br)c1)NC1CCCC1
1.3%,-9%,-10,-15%,CCn1c(SCc2ccc(Cl)cc2)nnc1-c1ccccc1
0.3%,-11%,7,-1%,CCc1noc(C)c1C(=O)N1CCCC(C(=O)c2ccc(OC)c(F)c2)C1 (stereo not given)
1.0%,4%,0,-27%,CCOP(=O)(c1ccccc1)c1nc(-c2ccccc2Cl)oc1N1CCCCC1 (stereo not given)
-2.8%,-8%,6,17%,COc1ccccc1N(C)S(=O)(=O)c1ccc(Cl)c(C(=O)OCc2c(C)noc2C)c1
2.4%,-3%,6,-9%,Cc1nn(Cc2ccccc2Cl)c(C)c1C(=O)NC1=NCCS1
1.2%,2%,/,/,O=C(O)C[C@H]1c2ccc(C(F)(F)F)cc2S(=O)(=O)N1Cc1ccccc1

Some of the entries so far, with two lines to a compound:
Fields – Rango complex inh, Rango dissoc inh, GLA inh pH 4.5, miR-21 FLuc
CN(Cc1cccs1)C(=O)/C=C/c1ccccc1[N+](=O)[O-]
  -2.3%, -4%, 3, -35%
O=C(O)c1cc(-c2ccc3ccccc3n2)nc2ccccc12
  1.5%, 4%, /, -14%

Continuation.
Rango complex inh,Rango dissoc inh,GLA inh pH 4.5,miR-21 FLuc,Compound
-0.2%,-6%,/,/,CC[C@@]1(C(=O)OC)N[C@H](CN(C)C(=O)C2CCCCC2)[C@@H]2C(=O)N(C)C(=O)[C@@H]21
-2.8%,-7%,0,-6%,Cn1ccnc1Sc1ccc(/C=N/NC(=O)c2ccccc2[N+](=O)[O-])cc1[N+](=O)[O-]
1.3%,-3%,-23,0%,CC(C)(C(=O)O)n1cncn1
-2.5%,9%,-11,-6%,COc1ccc(Br)c2c1C(=O)CC2
-0.4%,-16%,/,3%,COc1ccc(CCN2CCCn3c2nc2c3c(=O)n(C)c(=O)n2C)cc1OC
8.0%,0%,-7,1%,O=C(O)C(Cc1c[nH]c2ccccc12)N1C(=O)C2C3c4ccccc4C(c4ccccc43)C2C1=O (stereo not given)
1.6%,26%,-3,-21%,CC1(C)CC(=O)C2=C(C1)OC(N)=C(C#N)C2c1cn(-c2ccccc2)nc1-c1ccc(F)cc1 (stereo not given)
1.9%,0%,/,/,CC1=C(C(=O)O)CC(S(=O)(=O)O)C1(C)C (stereo not given)
2.4%,-4%,4,3%,CC(=O)N1CCCc2cc(S(=O)(=O)N3CCN(C4CCCCC4)CC3)ccc21
-1.8%,?,3,-21%,Cn1ccnc1C(=O)C1CCCN(Cc2cn[nH]c2-c2ccc(-c3ccccc3)cc2)C1 (stereo not given)
?,-20%,1,-1%,O=C(CSc1nc(O)cc(=O)[nH]1)N1CCCc2ccccc21
-0.4%,-8%,8,-1%,NC(=O)NOCc1c(Cl)cccc1Cl
-4.9%,-9%,/,-3%,Cc1ccc(S(=O)(=O)CCC(O)c2ccc(Cl)cc2)cc1 (stereo not given)
/,/,0,-14%,Cc1cc(C)n2nc(SCc3nnc(-c4ccc(F)cc4)o3)nc2n1
1.5%,-6%,/,/,Cc1c(C(=O)Nc2cccc(S(=O)(=O)N3CCOCC3)c2)oc2ccccc12
-3.9%,13%,/,/,Cc1cc(OCC(=O)OCC(=O)Nc2ccc(Cl)cn2)ccc1Cl
-2.9%,35%,5,1%&8%,O=C(NCc1ccc(Cl)cc1)C1CCN(S(=O)(=O)c2ccccc2)CC1
0.0%,0%,-4,-43%,N=C1SCC(=O)N1/N=C/c1ccccc1
1.5%,2%,0,-1%,Cn1c(=O)c2c(-c3ccccc3)n(Cc3ccccn3)cc2n(C)c1=O
-0.7%,-2%,2,0%,O=C(c1ccccc1)c1c[nH]c(C(=O)NNc2cccc(Cl)n2)c1
0.2%,12%,/,/,O=C(Nc1cc(S(=O)(=O)N2CCCCCC2)ccc1OCC(F)(F)F)c1ccc(=O)[nH]c1
-2.5%,1%,/,/,CN(C(=O)c1ccccc1C(=O)OCC(=O)c1ccccc1)c1ccccc1
0.6%,-1%,/,-3%,O=C(CSc1nnc(-c2ccc(Br)cc2)o1)Nc1cccc(C(=O)O)c1
-0.7%,-8%,/,16%,Cc1ccc2nc(-c3ccc(Br)cc3)cn2c1
-3.6%,2%,5,0%,COCCNC(=O)CN(C(=O)Cn1nnc2ccccc21)c1ccc(C)cc1
-4.3%,7%,/,0%,CC(C)[C@@H](C(=O)O)N(Cc1cccc(CN([C@H](C(=O)O)C(C)C)S(C)(=O)=O)c1)S(C)(=O)=O
-3.2%,4%,/,/,O=C(COC(=O)c1ccc(O)cc1)c1ccc2c(c1)OCCO2
-1.0%,-7%,6,-11%,S=C(Nc1ccccc1)N1CCN(Cc2ccccc2)CC1

Not all compounds are listed. The share of hits here may be higher or lower than overall.
